ClpP mod = qHTS Assay for Activators of ClpP | ATP-dependent Clp protease proteolytic subunit (Bacillus subtilis (strain 168)), P80244 | purified B. subtilis ClpP, FRET peptide cleavage, 20 min | Potency, µM (doses to about 57.5 µM), for inactives: at the top dose activity change, negative = active | 340,000 tested, 1.9% active | AID 651965, 2013; active = well fitted falling curve with a large enough effect; inconclusive = small, poorly fitted or top-dose-only effect; inactive = no such curve, though single readings can be large or run the other way; note: the source files actives as falling curves though it sought activators and does not explain the sign; nearly all actives have a fitted effect of over 65% in size; many hits overshoot -100%
Target sequence (P80244 whole entry, looked up): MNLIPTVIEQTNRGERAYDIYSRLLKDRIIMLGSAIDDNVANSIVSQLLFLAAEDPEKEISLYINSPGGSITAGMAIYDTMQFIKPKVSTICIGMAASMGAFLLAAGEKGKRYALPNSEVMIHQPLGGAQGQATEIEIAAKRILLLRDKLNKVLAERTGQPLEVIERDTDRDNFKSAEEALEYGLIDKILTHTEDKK
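Buffer: 100 mM Tris/HCl pH8, 100 mM KCl, 0.05% low protease BSA, 2.5% glycerol, 0.01% Tween-20. ClpP 10 microg/mL final; 20 min RT; delta FRET normalized to ADEP and DMSO controls.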
* marks the source's active call; other numbers are inactive results; ? = inconclusive. Potency is the fitted concentration of half-maximal effect.

smiles | ClpP mod
CC1(C)CC(=O)c2cc(-c3nc(-c4ccc(Cl)cc4)cs3)c(=O)n(-c3cccc(F)c3)c2C1 | -58.7%
CCOC(=O)c1ccccc1NC(=O)N1CCC(N2CCN(Cc3ccccc3)C(=O)C2=O)CC1 | -2.5%
COC(=O)c1ccccc1NC(=O)c1ncoc1-c1ccco1 | -10.9%
Cc1cc(C)cc(-n2c(SCC(=O)Nc3nnc(C)s3)nc3c([nH]c4ccccc43)c2=O)c1 | -6.6%
COc1ccccc1N1CCN(S(=O)(=O)c2ccc(-c3coc(C)n3)cc2)CC1 | -2.9%
CCOc1ccccc1NC(=O)N1CCN(S(=O)(=O)c2ccc3c(ccn3C)c2)CC1 | -8.6%
COc1ccc(Cl)cc1NC(=O)c1cc2c(=O)n3ccccc3nc2s1 | 4.0%
CC(=O)c1ccc(NC(=O)CSc2ccc3nnc(CCNS(=O)(=O)c4ccc(C)cc4)n3n2)cc1 | -2.9%
COC(=O)c1ccccc1NC(=O)c1ccc2nc(CCc3ccccc3)oc2c1 | -21.9%
COc1ccc(-n2c(SCC(=O)NCc3ccc(F)cc3)nc3c([nH]c4ccccc43)c2=O)cc1 | ?
Cc1cc(=O)n(CC(=O)NC(C)c2ccccc2)c2c1c(C)nn2-c1cccc(F)c1 (stereo unspecified) | -4.1%
CC(=O)c1ccc(S(=O)(=O)Nc2cccc(-c3ccc(N4CCCCCC4)nn3)c2)cc1 | 0.7%
Cc1ccc2oc(=O)c3cnn(CC(=O)Nc4ccc(Br)cc4C)c3c2c1 | -2.6%
CCCCOC(=O)c1ccc(Nc2nc3ccc(C)cc3n3cnnc23)cc1 | ?
CC1CCN(C(=O)CN2CCSc3ccccc32)CC1 | -0.2%
CC(=O)Nc1cc(-c2ccccc2)nn1Cc1cccc(Cl)c1 | -0.9%
Cc1nnc(N2CCC(C(=O)Nc3ccc(F)cc3)CC2)c2nn(-c3ccc(Cl)cc3)c(C)c12 | 3.9%
COc1ccc(-c2[nH]c(-c3ccc(C)cc3)nc2SCC(=O)NCC2CCCO2)cc1 (stereo unspecified) | ?
CCOC(=O)c1nnc2c(-c3ccc(F)cc3)c(C)nn2c1N | 3.6%
CC(C)c1ccc(S(=O)(=O)Nc2ccc(O)c(Sc3nc4ccccc4s3)c2)cc1 | -1.1%
COc1ccc(C(=O)NCCn2cc(SCC(=O)Nc3ccc4c(c3)OCCO4)c3ccccc32)cc1 | 0.1%
COc1ccc(OC)c(CCNc2nccn(-c3ccc(C)c(C)c3)c2=O)c1 | -14.4%
COc1ccc(NC(=O)CSc2nc(-c3cccs3)cc(C(F)(F)F)c2C#N)cc1 | -2.4%
CCOC(=O)c1c(NC(C)=O)c2c3c(sc2n1Cc1nc(-c2cccc(Cl)c2)oc1C)CCCC3 | -1.2%
Cc1ccc(-n2c3nc(=O)[nH]c(=O)c-3cc3c(C)nn(-c4ccccc4)c32)cc1C | 3.8%
CCc1ccc(CNC(=O)CSc2c3c(nc4ccc(Cl)cc24)CCCC3)cc1 | 1.2%
O=C(Nc1ccc2oc(-c3cccnc3)nc2c1)c1ccc(-c2ccccc2)o1 | 4.2%
COc1cc(OC)cc(-n2c(=O)c3sccc3n(Cc3c(C)cc(C)cc3C)c2=O)c1 | -3.3%
COc1cc2nc(N3CCOCC3)nc(NC3CC3)c2cc1OC | 4.1%
COc1ccc(-c2cn3c(n2)sc2cc(C(=O)N4CCCCC4)ccc23)cc1 | -21.9%
O=C(CSc1nc2c([nH]c3ccccc32)c(=O)n1-c1ccc(F)cc1)NCc1ccc(F)cc1 | ?
O=C1Nc2ccccc2Oc2cc(Oc3ccc(Cl)cc3)ccc21 | -2.4%
COc1ccc(C(=O)N(Cc2ccco2)Cc2cccs2)c(OC)c1 | -4.7%
Cc1ccc(Cl)cc1NC(=O)N1CCN(C)c2ncccc21 | 4.7%
Cc1ccc(NC(=O)Cn2c(=O)n(CCCCCC(=O)NCc3ccc(F)cc3)c(=O)c3sccc32)c(C)c1 | -1.2%
Cc1ccc2c(c1)NC(c1cccnc1)=NC(c1ccc(F)cc1)=N2 | -9.2%
Cc1cccc(OCc2nc(CC(=O)Nc3ccc(C)cc3C)cs2)c1 | -5.2%
COc1ccc(C(=O)Nc2ccc3c(c2)N(C2CCCC2)C(=O)c2ccccc2S3)cc1OC | ?
Cc1ccccc1CNC(=O)c1ccc(-n2c(C)cc3c2CCCC3)cc1 | -6.5%
CCN(CC)CCNC(=O)Cn1ncc2c([nH]c3ccccc32)c1=O | 5.0%

2 of the compounds above, as labelled records.
Structure: Cc1ccc(NC(=O)Cn2c(=O)n(CCCCCC(=O)NCc3ccc(F)cc3)c(=O)c3sccc32)c(C)c1
  ClpP mod = -1.2%
Structure: COc1ccc(C(=O)Nc2ccc3c(c2)N(C2CCCC2)C(=O)c2ccccc2S3)cc1OC
  ClpP mod = ?

The list goes on.
smiles | ClpP mod
Cc1ccc(C)c(CSc2cn(CC(=O)N3CCCC3)c3ccccc23)c1 | 0.4%
Cc1ccc(C)c(N2CCN(CCCNC(=O)C3COc4ccccc4C3)CC2)c1 (stereo unspecified) | -0.6%
Cn1cc(S(=O)(=O)N2CCCCC2)cc1C(=O)N1CCN(c2ccccc2F)CC1 | -1.8%
CSc1cccc(NS(=O)(=O)c2ccc3[nH]cc(C(=O)N4CCCC4)c(=O)c3c2)c1 | -23.7%
COc1ccccc1CNC(=O)CSc1cc(C)[nH]c(=O)n1 | -0.9%
CN1CCN(C(CNC(=O)c2ccccc2)c2ccc3c(c2)OCO3)CC1 (stereo unspecified) | -2.1%
CCOc1ccccc1NC(=O)C(=O)Nc1ccc2nc3n(c(=O)c2c1)CCCCC3 | -3.1%
CCn1c2ccccc2c2cc(CN3CCN(Cc4cccc(Cl)c4)CC3)ccc21 | ?
CCc1ccc(CNC(=O)CSc2cc(=O)n(C)c3ccc(Cl)cc23)cc1 | -13.9%
COc1ccccc1C(=O)Nc1cccc(C(=O)OCc2cc(=O)n3cc(C)sc3n2)c1 | -3.8%
O=C(c1ccc2c(c1)N(Cc1ccc(Cl)cc1)C(=O)c1ccccc1S2(=O)=O)N1CCCCC1 | 0.8%
Cc1nn(-c2ccccc2)c2c1N(CCCC(=O)NCc1ccccc1)C(=O)CS2 | 0.3%
Cc1ccc(-c2nc(C)c(CCNS(=O)(=O)c3ccc(F)c(C(F)(F)F)c3)s2)cc1 | 3.7%
CCC(CC)C(=O)N1CCc2cc(OC)c(OC)cc2C1COc1ccc(C(=O)OC)cc1 (stereo unspecified) | -2.0%
O=S(=O)(c1ccc(Br)cc1)c1nnn2c1nc(NCc1ccc3c(c1)OCO3)c1sccc12 | -3.9%
CCOc1cc(C(=O)NCc2ccc3c(c2)CCN3C(=O)CC)cc(OCC)c1OCC | -2.1%
Cc1nn(CCC(=O)NCc2ccc(Cl)cc2)c(=O)c2nn(-c3ccccc3)c(C)c12 | -8.7%
COC(=O)c1cc2oc3ccccc3c2n1CC(=O)Nc1ccc(Cl)cc1F | ?
O=C(Cn1cc(S(=O)(=O)N2CCCC2)c(S(=O)(=O)N2CCCC2)c1)Nc1ccccc1 | 0.0%
O=C(Nc1cc(Cl)ccc1Cl)C1(c2cccs2)CCOCC1 | 0.4%
CC(C)N(Cc1nc(-c2ccc(Cl)cc2)no1)C(=O)c1ccc(C(C)(C)C)cc1 | -1.6%
CCOc1ccc(C2C(C(=O)Nc3ccc(OC)cc3)=C(C)Nc3nc(SCc4ccc(Cl)cc4)nn32)cc1 (stereo unspecified) | 4.3%
O=C(CSc1nc2c(c(=O)[nH]1)CN(Cc1ccc(F)cc1)CC2)Nc1ccccc1Cl | -1.4%
O=c1c(=O)n(Cc2ccc(Cl)cc2)ccn1Cc1ccc(F)cc1 | -1.9%
CCc1ccccc1NC(=O)Nc1c[nH]c(=O)[nH]c1=O | -1.4%
COc1ccc(-c2cc3nc(-c4ccc(Br)cc4)cc(C(F)(F)F)n3n2)cc1 | -0.3%
O=c1oc2ccc3ccccc3c2cc1-c1nnc(Nc2cccc(C(F)(F)F)c2)s1 | 1.1%
CC(CNC(=O)c1ccc(CSc2nc3ccncc3n2Cc2ccccc2)cc1)c1ccccc1 (stereo unspecified) | -13.7%
Cc1noc(Cn2c(=O)c3cc4c(cc3n(CC(=O)Nc3cccc(Cl)c3)c2=O)OCO4)n1 | -25.5%
CN(C)c1ccc(Nc2ncnc3c2c(-c2ccccc2)cn3-c2cccc(Cl)c2)cc1 | ?
COc1ccc(-c2onc(C)c2C)cc1S(=O)(=O)Nc1ccc(OC(F)(F)F)cc1 | -0.1%
COC(=O)c1cc2oc3ccccc3c2n1CC(=O)Nc1ccc(C)cc1Cl | -6.0%
Cc1ccc(NC(=O)CN2C(=O)CCn3nc(-c4cccn4C)cc32)c(Cl)c1 | -2.9%
O=S(=O)(Nc1cccc(-c2ccc(N3CCCC3)nn2)c1)c1ccccc1C(F)(F)F | -8.3%
CC(C)c1ccc(NC(=O)Cn2nnc(C(=O)NCc3ccc(Cl)cc3)c2N)cc1 | -3.7%
O=C(COCc1cc(-c2ccc3c(c2)OCO3)on1)Nc1cc(C(F)(F)F)ccc1Cl | -15.5%
COc1ccc(-c2cc(C(C)=O)c(C)n2CCC(=O)Nc2cc(Cl)ccc2C)cc1 | 16.7%
CC1CCc2onc(C(=O)N3CCN(c4cccc(C(F)(F)F)c4)CC3)c2C1 (stereo unspecified) | 2.2%
O=C(Nc1ccc(F)c(F)c1)c1ccc(=O)n(Cc2ccc(F)cc2)c1 | 3.5%
CCc1ccccc1NC(=O)c1oc(=O)c2ccccc2c1-c1ccccc1 | -3.7%
O=C(c1ccc2c(Cl)c3c(nc2c1)CCCC3)N1CCN(c2ccccc2)CC1 | -2.8%
O=C(Nc1ccc(Cl)c(C(F)(F)F)c1)c1cc2nc(-c3ccc4c(c3)OCO4)cc(C(F)(F)F)n2n1 | ?
Cc1ccc2oc(C(=O)Nc3ccc(S(=O)(=O)Nc4ncccn4)cc3)cc(=O)c2c1 | 1.7%
CSc1ccc(CCNC(=O)c2csc3c2CCCCC3)cc1 | -1.1%
Cc1cc(N2CCN(c3ccc(F)cc3)CC2)n2cnnc2n1 | 2.2%
COc1ccc(CNC(=O)c2cccc(-n3cnc4cccnc43)c2C)cc1 | -2.0%
Cc1ccc(-c2noc(COc3ccc(Br)c(C)c3)n2)cc1 | -2.5%
Cc1cccc(NC(=O)CSc2nnc3[nH]c(=O)cc(C)n23)c1C | -7.5%
COc1ccc(Br)cc1CNC(=O)C(C)n1nc(C)n2c(cc3occc32)c1=O (stereo unspecified) | -0.4%
COc1cc(Cn2c(=O)sc3ccccc32)ccc1OC(C)C | -1.9%
CCOC(=O)c1c(C)[nH]c(C)c1S(=O)(=O)N1CCCC(C(=O)NCc2ccc(C)cc2)C1 (stereo unspecified) | 1.3%
CCOc1ccc(CNC(=O)COc2cc(=O)n(C)c3ccccc23)cc1 | -4.6%
N#Cc1ccc(NC(=O)COc2ccccc2C(=O)Nc2ccccc2)cc1 | -8.9%
Cc1cc(OCC(=O)Nc2nc3c(s2)CCCC3)cc(C)c1Cl | 0.4%
CCN(CC)CCCNC(=O)CCc1c(C)nc2c(c1C)c(=O)n(C)c(=O)n2C | 4.1%
COC(=O)CCNC(=O)N1CCN(c2nnc(C)c3c(C)n(-c4ccccc4)nc23)CC1 | 4.3%

(next part)
smiles | ClpP mod
CCN(Cc1ccccc1)S(=O)(=O)c1ccc(-c2coc(C)n2)cc1 | -5.9%
Cc1cc(Br)ccc1NC(=O)c1sc2nc3n(c(=O)c2c1C)CCCC3 | -24.6%
COc1ccc(Cl)cc1NC(=O)Cn1c(=O)n2nc(-c3ccccc3)nc2c2ccccc21 | -1.4%
O=c1[nH]cnc2n[nH]nc12 | -2.4%
CCOc1ccc(NC(=O)c2cc3cc4cc(OC)ccc4nc3s2)cc1 | 0.1%
CCn1nnc2cc(C(=O)Nc3ccc(OC)cc3)ccc21 | 4.4%
CN(C)c1ccc(-c2nc(-c3ccco3)no2)cc1[N+](=O)[O-] | -0.7%
O=C(Cn1cc(S(=O)(=O)Cc2cccc(Cl)c2)c2ccccc21)Nc1ccc(F)c(Cl)c1 | -5.3%
Cc1ccc(S(=O)(=O)N2CCN(c3nc(-c4cccnc4)nc4ccccc34)CC2)cc1 | -6.4%
Cc1ccc(NC(=O)CCN2C(=O)c3ccccc3Sc3ncccc32)c(Cl)c1 | -1.7%
CC(=O)N1c2ccccc2CC1C(=O)NCc1cccc(Cl)c1 (stereo unspecified) | 0.4%
Cc1ccc(C)c(N2C(=O)N(C)c3ccccc3S2(=O)=O)c1 | -0.6%
O=C(COc1ccc(F)cc1)Nc1ccc2nc(SCC(=O)N3CCc4ccccc43)sc2c1 | 0.8%
COc1ccc(-c2nc3cc(C(C)C)ccc3o2)cc1NC(=O)COc1ccc(C)cc1C | -17.7%
Cc1csc2nc(COC(=O)c3cccc(NC(=O)COc4ccc(Cl)cc4)c3)cc(=O)n12 | 0.3%

As entered above.
In ClpP mod, Cc1ccc(S(=O)(=O)N2CCN(c3nc(-c4cccnc4)nc4ccccc34)CC2)cc1 reads -6.4%
In ClpP mod, CC(=O)N1c2ccccc2CC1C(=O)NCc1cccc(Cl)c1 (stereo unspecified) reads 0.4%
In ClpP mod, Cc1ccc(C)c(N2C(=O)N(C)c3ccccc3S2(=O)=O)c1 reads -0.6%
In ClpP mod, O=C(COc1ccc(F)cc1)Nc1ccc2nc(SCC(=O)N3CCc4ccccc43)sc2c1 reads 0.8%
In ClpP mod, Cc1ccc(NC(=O)CCN2C(=O)c3ccccc3Sc3ncccc32)c(Cl)c1 reads -1.7%
In ClpP mod, Cc1csc2nc(COC(=O)c3cccc(NC(=O)COc4ccc(Cl)cc4)c3)cc(=O)n12 reads 0.3%

Screening results as filed in PubChem BioAssay.

Some of the compounds tested, so the mix of outcomes need not match the whole.
